Bioassay records as filed in PubChem.
HIV Env fusion: HIV envelope-mediated fusion inhibition; HeLa-JRFL Env/CEM21 cell fusion, luciferase; inhibition, % at 12.3 µM; 360,000 tested, 1.1% active;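 active = mean replicate inhibition score of at least 50 and every replicate individually at or above 50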;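 note: 0% = plate neutral controls and 100% = maraviroc near 300 nM; one replicate is shown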
UUG fidelity: alters start codon recognition fidelity in yeast | S. cerevisiae UUG-firefly luciferase reporter, luminescence/redox ratio | 350,000 tested, 0.13% active | AID 602363 | activity score, % at 18.7 µM;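 active = replicate mean at a twofold rise or more, about +100% in these data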;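 note: firefly luciferase made from a UUG start codon reports start codon fidelity; reporter light over untreated wells divided by growth signal over untreated wells; some hits fall short of that in this replicate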
* hit, by the source's call; [ ] = remark or other dose. This is a subset (hit frequency here may not be typical).

HIV Env fusion	UUG fidelity	Molecule
-31[16.7 µM]	-10	COc1ccc(S(=O)(=O)N(C)C[C@H]2Oc3c(NS(=O)(=O)c4cccs4)cccc3C(=O)N([C@@H](C)CO)C[C@H]2C)cc1
0[16.7 µM]	11	CN1C(=O)c2cc(NC(=O)c3ccc(F)cc3)ccc2OC[C@@H]2O[C@H](CC(=O)NCC3CC3)CC[C@H]21
40[16.7 µM]	22	C[C@H](CO)N1C[C@H](C)[C@H](CN(C)C(=O)c2ccc3c(c2)OCO3)Oc2ncc(/C=C/c3ccccc3)cc2C1=O
23[16.7 µM]	-7	COc1cccc(NC(=O)N(C)C[C@@H]2Oc3cc(/C=C/c4ccccc4)ccc3S(=O)(=O)N([C@H](C)CO)C[C@@H]2C)c1
-3[16.7 µM]	0	CCCC#Cc1cnc2c(c1)C(=O)N([C@@H](C)CO)C[C@H](C)[C@H](CN(C)C(=O)c1cccc(F)c1)O2
3[16.7 µM]	5	O=C(C[C@@H]1CC[C@H](NC(=O)CN2CCOCC2)[C@H](CO)O1)NCCc1ccncc1
8[16.7 µM]	6	CCCNC(=O)C[C@@H]1CC[C@H]2[C@@H](COc3ccc(NC(=O)Nc4ccccc4)cc3C(=O)N2C)O1
-12[16.7 µM]	-3	Cc1ccc(-c2ccc3c(c2)O[C@@H](CN(C)C)[C@H](C)CN([C@@H](C)CO)S3(=O)=O)cc1
-1[16.7 µM]	-1	C[C@@H](NC(=O)C[C@@H]1C[C@@H]2c3cc(NC(=O)Nc4ccccc4F)ccc3O[C@@H]2[C@H](CO)O1)c1ccccc1
7[16.7 µM]	-7	CCS(=O)(=O)N[C@H]1C=C[C@@H](CC(=O)N2CCCCC2)O[C@@H]1CO
24[16.7 µM]	11	COc1ccc(C#Cc2ccc3c(c2)O[C@@H](CN(C)S(=O)(=O)c2ccccc2F)[C@@H](C)CN([C@H](C)CO)S3(=O)=O)cc1
-15[16.7 µM]	-9	C[C@@H]1CN([C@@H](C)CO)S(=O)(=O)c2ccc(-c3ccncc3)cc2O[C@H]1CN(C)Cc1cccnc1

Whole records from above:
`Cc1ccc(-c2ccc3c(c2)O[C@@H](CN(C)C)[C@H](C)CN([C@@H](C)CO)S3(=O)=O)cc1` is listed with HIV Env fusion: -12[16.7 µM]; UUG fidelity: -3
`COc1ccc(S(=O)(=O)N(C)C[C@H]2Oc3c(NS(=O)(=O)c4cccs4)cccc3C(=O)N([C@@H](C)CO)C[C@H]2C)cc1` is listed with HIV Env fusion: -31[16.7 µM]; UUG fidelity: -10
`C[C@@H](NC(=O)C[C@@H]1C[C@@H]2c3cc(NC(=O)Nc4ccccc4F)ccc3O[C@@H]2[C@H](CO)O1)c1ccccc1` is listed with HIV Env fusion: -1[16.7 µM]; UUG fidelity: -1

Further records follow:
HIV Env fusion	UUG fidelity	Molecule
-11[16.7 µM]	-4	CCCC(=O)Nc1ccc2c(c1)C(=O)N(C)[C@@H]1CC[C@H](CC(=O)NCC(F)(F)F)O[C@@H]1CO2
18[16.7 µM]	-8	CCCNC(=O)Nc1ccc2c(c1)OC[C@H](C)N(CCC)C[C@H](C)[C@@H](OC)CN(C)C2=O
18[16.7 µM]	-5	O=C(C[C@H]1C=C[C@H](NC(=O)CC2CC2)[C@H](CO)O1)NCc1ccc(-c2ccccc2)cc1
35[16.7 µM]	15	CC(C)CC#Cc1cnc2c(c1)C(=O)N([C@@H](C)CO)C[C@H](C)[C@H](CN(C)C(=O)c1ccc(F)cc1)O2
2[16.7 µM]	13	C[C@@H]1CCCCO[C@@H](CN(C)C(=O)c2ccccc2)[C@@H](C)CN([C@@H](C)CO)C(=O)c2cc(NS(C)(=O)=O)ccc2O1
-10[16.7 µM]	-2	O=C(O)C[C@H]1C[C@H]2c3cc(NC(=O)Nc4ccccc4F)ccc3O[C@H]2[C@@H](CO)O1
2[16.7 µM]	-14	COCc1cn(CC[C@@H]2CC[C@@H](NC(=O)CCN3CCCCC3)[C@@H](CO)O2)nn1
12[16.7 µM]	-9	C[C@H]1CCCCO[C@H](CN(C)C(=O)c2ccccc2)[C@@H](C)CN([C@@H](C)CO)C(=O)c2cc(NC(=O)Nc3ccc4c(c3)OCO4)ccc2O1
-17[16.7 µM]	12	COc1ccc(S(=O)(=O)N(C)C[C@@H]2OCCCC[C@@H](C)Oc3ccc(NS(=O)(=O)c4c(C)noc4C)cc3C(=O)N([C@@H](C)CO)C[C@H]2C)cc1
2[16.7 µM]	22	COc1ccc(NC(=O)Nc2ccc3c(c2)C(=O)N([C@H](C)CO)C[C@H](C)[C@H](CN(C)C(=O)Nc2ccc(OC)cc2)OCCCC[C@H](C)O3)cc1
12[16.7 µM]	-25	CN(C)C(=O)C[C@H]1CC[C@@H](NS(=O)(=O)c2ccccc2)[C@@H](CO)O1
-27[16.7 µM]	-4	C[C@@H](O)C#Cc1cnc2c(c1)C(=O)N([C@@H](C)CO)C[C@H](C)[C@H](CN(C)CC1CC1)O2

Some values from the entries so far.
HIV Env fusion result of `CCCNC(=O)Nc1ccc2c(c1)OC[C@H](C)N(CCC)C[C@H](C)[C@@H](OC)CN(C)C2=O` : 18[16.7 µM]
HIV Env fusion result of `C[C@@H]1CCCCO[C@@H](CN(C)C(=O)c2ccccc2)[C@@H](C)CN([C@@H](C)CO)C(=O)c2cc(NS(C)(=O)=O)ccc2O1` : 2[16.7 µM]

Following part
HIV Env fusion	UUG fidelity	Molecule
23[16.7 µM]	18	CC(C)NC(=O)Nc1ccc2c(c1)CC(=O)N([C@@H](C)CO)C[C@@H](C)[C@H](CN(C)C(=O)Nc1ccccc1)O2
9[16.7 µM]	2	CCC(=O)N(C)C[C@@H]1Oc2cc(C#CCN(C)C)ccc2S(=O)(=O)N([C@@H](C)CO)C[C@H]1C
7[16.7 µM]	-4	C[C@H](CO)N1C[C@H](C)[C@H](CN(C)C(=O)C2CCCCC2)Oc2cc(-c3ccccc3)ccc2S1(=O)=O
-18[16.7 µM]	7	CCCN(C)C[C@@H]1Oc2cc(-c3ccncc3)ccc2S(=O)(=O)N([C@@H](C)CO)C[C@@H]1C
6[16.7 µM]	196*	O=C(Cc1ccncc1)NCC[C@H]1CC[C@H](NC(=O)C2CCCC2)[C@H](CO)O1
10[16.7 µM]	-8	CCCN(C)C[C@@H]1Oc2cc(-c3ccc(C)cc3)ccc2S(=O)(=O)N([C@@H](C)CO)C[C@@H]1C
-14[16.7 µM]	4	C[C@H]1CN([C@@H](C)CO)C(=O)c2cc(NS(=O)(=O)c3ccc(F)cc3)ccc2O[C@@H]1CN(C)C(=O)Nc1ccc2c(c1)OCO2
-16[16.7 µM]	-4	C[C@H](CO)N1C[C@H](C)[C@@H](CN(C)C)Oc2c(NS(C)(=O)=O)cccc2C1=O
12[16.7 µM]	41	COc1ccc(S(=O)(=O)Nc2ccc3c(c2)C(=O)N([C@@H](C)CO)C[C@H](C)[C@@H](CN(C)CC2CCCCC2)OCCCC[C@H](C)O3)cc1
-5[16.7 µM]	5	COc1ccc(NC(=O)Nc2ccc3c(c2)C(=O)N([C@H](C)CO)C[C@@H](C)[C@@H](CN(C)S(=O)(=O)c2cn(C)cn2)OCCCC[C@H](C)O3)cc1
4[16.7 µM]	5	C[C@@H]1CN([C@H](C)CO)C(=O)c2cc(C3=CCCC3)cnc2O[C@H]1CN(C)C(=O)Nc1cccc(F)c1
48[16.7 µM]	-14	C[C@@H]1CN([C@@H](C)CO)C(=O)c2cc(NC(=O)Nc3cccc4ccccc34)ccc2O[C@H]1CN(C)Cc1ccc(Oc2ccccc2)cc1
-10[16.7 µM]	9	CCCNC(=O)N(C)C[C@H]1Oc2cc(-c3ccccc3F)ccc2S(=O)(=O)N([C@@H](C)CO)C[C@@H]1C
-24[16.7 µM]	3	C[C@H]1CN([C@@H](C)CO)C(=O)Cc2cc(NC(=O)CCN3CCOCC3)ccc2O[C@@H]1CN(C)CC1CCCCC1
31[16.7 µM]	7	C[C@@H]1CCCCO[C@@H](CN(C)C)[C@@H](C)CN([C@@H](C)CO)C(=O)c2cc(NC(=O)CCC(F)(F)F)ccc2O1
-38[16.7 µM]	5	C[C@@H]1CCCCO[C@H](CN(C)Cc2ccncc2)[C@@H](C)CN([C@@H](C)CO)C(=O)c2cc(NC(=O)Nc3ccc4c(c3)OCO4)ccc2O1
18[16.7 µM]	-12	Cc1ccc(S(=O)(=O)N(C)C[C@H]2Oc3c(NS(=O)(=O)c4ccc(F)cc4)cccc3C(=O)N([C@@H](C)CO)C[C@H]2C)cc1
20[16.7 µM]	-4	COc1ccc(NC(=O)Nc2ccc3c(c2)[C@@H]2C[C@H](CC(=O)NC4CCCC4)O[C@H](CO)[C@@H]2O3)cc1
8[16.7 µM]	-8	N#C[C@H]1[C@H](c2ccc(-c3ccc(F)cc3)cc2)[C@H](CO)N1C(=O)Cc1ccccc1
-42[16.7 µM]	-3	CCC(=O)N(C)C[C@H]1Oc2ncc(-c3ccccc3F)cc2C(=O)N([C@@H](C)CO)C[C@@H]1C
20[16.7 µM]	-4	CN(C)CC(=O)Nc1ccc2c(c1)[C@H]1C[C@@H](CC(=O)NCC3CC3)O[C@H](CO)[C@H]1O2
-3[16.7 µM]	5	C[C@@H]1CN([C@H](C)CO)C(=O)Cc2cc(NC(=O)C3CC3)ccc2O[C@H]1CN(C)S(=O)(=O)c1ccccc1
-13[16.7 µM]	2	C[C@@H]1CN([C@@H](C)CO)C(=O)Cc2cc(NS(=O)(=O)c3ccccc3)ccc2O[C@@H]1CN(C)Cc1ccc(-c2ccccc2)cc1
26[16.7 µM]	2	CO[C@H]1CN(C)C(=O)c2cc(NC(=O)c3nc4ccccc4s3)ccc2OC[C@@H](C)N(Cc2ccncc2)C[C@H]1C
-4[16.7 µM]	5	COc1ccc(C#Cc2cnc3c(c2)C(=O)N([C@@H](C)CO)C[C@H](C)[C@@H](CN(C)C(C)=O)O3)cc1
-8[16.7 µM]	-1	CO[C@@H]1CN(C)C(=O)c2ccc(NC(C)=O)cc2OC[C@@H](C)N(C(=O)c2ccc(F)cc2)C[C@@H]1C
16[16.7 µM]	19	COc1ccc(S(=O)(=O)N(C)C[C@H]2OCCCC[C@H](C)Oc3ccc(NC(=O)c4ccncc4)cc3C(=O)N([C@@H](C)CO)C[C@H]2C)cc1
13[16.7 µM]	11	C[C@H]1CCCCO[C@H](CN(C)C(=O)Nc2ccccc2)[C@@H](C)CN([C@@H](C)CO)C(=O)c2cc(NC(=O)c3ccncc3)ccc2O1
-38[16.7 µM]	-4	C[C@@H]1CN([C@@H](C)CO)S(=O)(=O)c2ccc(C#Cc3ccccc3)cc2O[C@@H]1CN(C)C(=O)Nc1ccc2c(c1)OCO2
-23[16.7 µM]	-3	COc1ccc(CN(C)C[C@H]2Oc3c(NC(=O)Nc4ccccc4)cccc3C(=O)N([C@@H](C)CO)C[C@H]2C)cc1
1[16.7 µM]	17	COc1ccc(S(=O)(=O)Nc2ccc3c(c2)C(=O)N([C@@H](C)CO)C[C@H](C)[C@@H](CN(C)C(=O)NC(C)C)OCCCC[C@H](C)O3)cc1
-5[16.7 µM]	-11	CNC[C@H]1Oc2ccc(NS(=O)(=O)c3cn(C)cn3)cc2CC(=O)N([C@H](C)CO)C[C@H]1C
11[16.7 µM]	-21	O=C(C[C@H]1C[C@H]2c3cc(NC(=O)c4cccnc4)ccc3O[C@H]2[C@@H](CO)O1)NCc1cccnc1
15[16.7 µM]	-13	C[C@@H]1CN([C@H](C)CO)S(=O)(=O)c2ccc(C#Cc3cccc(F)c3)cc2O[C@@H]1CN(C)S(=O)(=O)c1ccccc1F
5[16.7 µM]	16	CC(C)NC(=O)Nc1ccc2c(c1)C(=O)N([C@H](C)CO)C[C@H](C)[C@@H](CN(C)S(=O)(=O)c1ccc(F)cc1)OCCCC[C@H](C)O2
7[16.7 µM]	-5	C[C@@H]1CN([C@@H](C)CO)C(=O)c2cc(NS(=O)(=O)c3cccs3)ccc2O[C@@H](C)CCCCO[C@H]1CN(C)S(=O)(=O)c1ccc(F)cc1

Grouped by structure, those above with a CF3 group
HIV Env fusion	UUG fidelity	Molecule
-11[16.7 µM]	-4	CCCC(=O)Nc1ccc2c(c1)C(=O)N(C)[C@@H]1CC[C@H](CC(=O)NCC(F)(F)F)O[C@@H]1CO2
31[16.7 µM]	7	C[C@@H]1CCCCO[C@@H](CN(C)C)[C@@H](C)CN([C@@H](C)CO)C(=O)c2cc(NC(=O)CCC(F)(F)F)ccc2O1

Going on with the list.
HIV Env fusion	UUG fidelity	Molecule
-51[16.7 µM]	2	Cc1ccc(S(=O)(=O)Nc2ccc3c(c2)C(=O)N([C@H](C)CO)C[C@H](C)[C@H](CN(C)C(=O)C2CCCCC2)OCCCC[C@H](C)O3)cc1
-12[16.7 µM]	10	CCCNC(=O)N(C)C[C@@H]1Oc2cc(C3=CCCCC3)ccc2S(=O)(=O)N([C@H](C)CO)C[C@@H]1C
1[16.7 µM]	3	Cc1noc(C)c1NC(=O)N(C)C[C@@H]1OCCCC[C@@H](C)Oc2ccc(NC(=O)c3ccccc3)cc2C(=O)N([C@H](C)CO)C[C@H]1C
7[16.7 µM]	-3	O=C(CN1CCOCC1)N[C@H]1CC[C@H](CCNC(=O)Nc2cc(F)ccc2F)O[C@H]1CO
-35[16.7 µM]	13	Cc1noc(C)c1S(=O)(=O)N(C)C[C@H]1Oc2ccc(NS(=O)(=O)c3ccc(Cl)cc3)cc2CC(=O)N([C@H](C)CO)C[C@@H]1C
0[16.7 µM]	3	C[C@@H]1CN([C@H](C)CO)C(=O)c2cc(NC(=O)Nc3ccc4c(c3)OCO4)ccc2O[C@@H](C)CCCCO[C@@H]1CN(C)S(=O)(=O)c1ccccc1
4[16.7 µM]	-1	C[C@@H]1CN([C@@H](C)CO)C(=O)Cc2cc(NS(=O)(=O)c3cccs3)ccc2O[C@H]1CN(C)Cc1ccc(C(=O)O)cc1
-4[16.7 µM]	6	O=C(C[C@H]1C[C@@H]2c3cc(NC(=O)NC4CCCCC4)ccc3O[C@@H]2[C@@H](CO)O1)NCc1ccncc1
-20[16.7 µM]	-14	COC(=O)C[C@H]1C=C[C@@H](NS(=O)(=O)c2ccc(OC)cc2)[C@@H](CO)O1
